# AmpC nodet inh: AmpC beta-lactamase inhibition, detergent-free assay; AmpC nitrocefin hydrolysis, absorbance 480 nm, no detergent; potencies from a single point are estimates; AID 585; Potency, µM (series often up to 28.7 µM), for inactives: at the top dose activity change, negative = inhibition; 71,000 compounds, 1.8% hits; active = falling curve, for most hits resting on a single point; inconclusive = weak or doubtful change; inactive = flat or rising curve; also: % of control where 0% means no effect; about half of the hits show no inhibition at the top dose; a quarter of the inactives give rising signals
# Target sequence (P00811 whole entry, looked up): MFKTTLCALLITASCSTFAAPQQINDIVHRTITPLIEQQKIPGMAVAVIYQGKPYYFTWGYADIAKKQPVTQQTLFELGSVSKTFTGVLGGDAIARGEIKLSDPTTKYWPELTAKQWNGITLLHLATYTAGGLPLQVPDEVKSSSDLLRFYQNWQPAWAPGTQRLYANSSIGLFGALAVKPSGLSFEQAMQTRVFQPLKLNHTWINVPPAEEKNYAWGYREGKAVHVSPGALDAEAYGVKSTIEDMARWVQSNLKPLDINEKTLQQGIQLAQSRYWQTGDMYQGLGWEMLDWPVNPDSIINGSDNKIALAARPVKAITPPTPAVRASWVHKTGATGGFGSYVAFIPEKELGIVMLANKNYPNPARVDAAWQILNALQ
#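 AmpC in 20 mM phosphate buffer pH 7.0 was preincubated 15 min at room temperature with compounds. Nitrocefin (800 uM stock) was then added and hydrolysis followed at 480 nm every 20 s for 4 min.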
# Active calls of the source: *; u = inconclusive; & = joins results of further samples; [ ] = dose if it differs, or a comment. Potency is read from the fitted curve at half-maximal effect.
compound	AmpC nodet inh
O=C(C1CCCCN1S(=O)(=O)c1ccc(F)cc1)N1CCN(c2ccccc2F)CC1 (centres undefined)	71%
CCn1nc(C(=O)NC2=NCCS2)c2ccccc2c1=O	-12%
CCN(CC)C(=O)NC1CC2CCCC(C1)N2Cc1ccccc1 (centres undefined)	-11%
Cc1cc2nc(-c3ccc(NC(=O)c4cccnc4)cc3)oc2cc1C	50%
O=C1N=C(c2ccccc2)C(c2ccccc2)N1 (centres undefined)	2%
COc1ccc(-c2cc(-c3ccccc3O)[nH]n2)cc1OC	46%
Cc1nnc(SCc2ccc(CC(=O)O)cc2)o1	-17%
CC1Cc2ccccc2N1C(=O)c1cccnc1 (centres undefined)	0%
O=C(CCC1N=C2c3ccccc3N=C(SCc3cccc(Cl)c3)N2C1=O)NCc1ccco1 (centres undefined)	130%
O=S1(=O)C=CC(Sc2nc3ccccc3[nH]2)C1 (centres undefined)	-14%
C=C(C)CSc1nnc(-c2ccccc2)n1N	8%
O=C1C(c2ccc(F)cc2)N(Cc2ccc3c(c2)OCO3)C(=O)CN1C1CCCCC1 (centres undefined)	25%
Cc1ccccc1Cn1ccc(NC(=O)c2cnn3cccnc23)n1	72%
COc1cc(C2=NOC(C(=O)NCc3ccc(F)cc3)C2)cc(OC)c1OC (centres undefined)	48%
O=C(O)CCC(=O)c1ccc[nH]1	7%[5.75 µM]
Cc1nc(N2CCC3(CC2)OCCO3)c2nnn(Cc3ccccc3F)c2n1	70%
CC1CCCC(NC2CCCCNC2=O)C1 (centres undefined)	-1%
O=C(CN1C(=O)COc2ccccc21)N(Cc1cccnc1)Cc1ccccc1F	38%
CN(C)Cc1cc(CCNC(=O)c2ccc(Cl)cc2)ccc1O	-11%
COC(=O)c1ccc(C(NC(=O)OCc2ccccc2)/C(C)=C/[C@@H](C)C(=O)NCc2cc(F)cc(F)c2)cc1 (some centres undefined)	2%
O=C1c2ccccc2C(=O)N1CCCn1c(=O)oc2ccccc21	6%
CCOC(=O)Cc1csc(SCC(=O)Nc2cccc(C#N)c2)n1	-2%
CC(C)Oc1ccc(-c2cc(=O)[nH]c(=O)[nH]2)cc1	-9%
C=CCn1c(COC)nnc1SCC(=O)c1ccc(F)cc1	18%
Cc1ccc(C(c2nnnn2CCc2ccccc2)N2CCSCC2)cc1 (centres undefined)	39%
CCOc1ccc(NC(=O)c2cccnc2C(=O)O)cc1	-16%
COCCN(C(=O)C1CC1)c1nnc(-c2cccc(C)c2)s1	89%
COc1ccccc1OCC(=O)NCc1cccs1	5%
CC(=O)n1nc2nc(C)cc(C)c2c1N	-6%
COc1cccc(C2C(C(=O)c3ccco3)=C(O)C(=O)N2CCCN2CCOCC2)c1OC (centres undefined)	9%

# Other results:
compound	AmpC nodet inh
C=CCOC(=O)c1ccccc1C(=O)OCC=C	0%
O=C(NCCC1=CCCCC1)C1CCCN(S(=O)(=O)c2ccc(F)cc2)C1 (centres undefined)	19%
CCN1CCN(c2ncnc3c2sc2nc(N4CCOCC4)c4c(c23)CCC4)CC1	16%
COC(=O)[C@@]1(Cc2ccccc2)[C@H]2c3cc(C(=O)N(C)C)n(C[C@H](O)CO)c3C[C@H]2CN1C(=O)c1ccccc1	166%
CC(C)NC(=O)c1ccc(CS(=O)(=O)c2ccc(Br)cc2)o1	17%
COc1ccc(S(=O)(=O)NCCC(=O)NC(C)c2ccccc2)cc1 (centres undefined)	11%
O=c1c2cnn(-c3ccc(F)cc3)c2ncn1Cc1cccnc1	-1%
CCCC(=O)Nc1ccc(OCC(=O)OC)cc1	8%
O=C(Cc1ccccc1)NC(NCCCN1CCOCC1)(C(F)(F)F)C(F)(F)F	4%
O=C(NC1CCc2ccccc21)C1CCN(S(=O)(=O)c2ccc(-n3cnnn3)cc2)CC1 (centres undefined)	29%
O=C(Cn1cc2c(n1)CCCC2)NCc1cccs1	10%
CC(C)c1ccc(NC(=O)C2CC(=O)N(C(C)C)C2)cc1 (centres undefined)	22%
COc1ccc(C(=O)N2CCC[C@@]3(CCN(CC(C)C)C3)C2)cc1	67%
On1onc2c3cc(-c4ccccc4)nc3ccc21	-15%
COc1ccccc1CNC(=O)c1nnc(Cc2ccc(Cl)cc2)o1	42%
CCOC(=O)C1CCN(C(=O)CSc2n[nH]c(=O)[nH]c2=O)CC1	-6%
COc1cc(CNc2ccc(N3CCOCC3)c(C(=O)O)c2)ccc1OCC(N)=O	-5%
N#Cc1ccccc1-c1ccc2ncnc(NCc3cccs3)c2c1	-4%
O=S(=O)(c1ccc(-n2cnnn2)cc1)N(C1CCCCC1)C1CCCCC1	15%
CN(C)c1ccc(C(=O)OCC(=O)NC2CCCCC2)cc1	6%
CC1(N2CCOCC2)CC2(O)C(=[N+]1[O-])CCc1c2no[n+]1[O-] (centres undefined)	0%
COc1ccc2nc(NS(=O)(=O)c3ccc(NC(C)=O)cc3)sc2c1	u
Cn1c(C(=O)N2CCN(Cc3ccc4c(c3)OCO4)CC2)cc2sccc21	158%
Cc1ccc(CNC(=O)C2CCC(=O)N2C2CCCCC2)cc1 (centres undefined)	14%
COc1ccc(-c2nnc(SCC(=O)Nc3ccccc3)n2C)cc1	2%
N#Cc1c(N2CCCC2)nc(N)c2c(N)nc(N3CCCC3)cc12	51%
Cc1cc(C)n(-c2ncnc3sc4c(c23)CCCC4)n1	23%
CCC(C)(C)n1nnnc1C(c1ccc2ncccc2c1)N1CCN(c2nc3ccccc3s2)CC1 (centres undefined)	95%
CCc1nnc(NC(=O)c2cccc(C(=O)Nc3nnc(CC)s3)n2)s1	28%
O=C(Nc1ccc(Cl)c(C(F)(F)F)c1)C1CCCN(S(=O)(=O)c2cnc[nH]2)C1 (centres undefined)	10%

# New compounds follow
compound	AmpC nodet inh
O=P(O)(CCc1ccncc1)CN1CCCCC1	-1%
O=c1c2ccccc2nc(-c2ccco2)n1/N=C/c1ccco1	-1%
COc1ccc2oc(-c3ccccc3)c(C(=O)N3CCOCC3)c2c1	98%
COc1cc(C)nc(N2CCCC(C(=O)Nc3cccc(Cl)c3C)C2)n1 (centres undefined)	2%
Cc1cc(Nc2ccc(Br)cc2F)n2ncnc2n1	-5%
CCOC(=O)N1CCN(C(=O)C2CC(=O)N(c3ccc(OC)cc3)C2c2ccc(OC)cc2)CC1 (centres undefined)	106%
COc1cccc(N(CC(=O)Nc2cccc(F)c2)S(C)(=O)=O)c1	4%
O=C(Nc1ccncc1)C1(c2ccccc2)CCCC1	-4%
COCCn1cc(C(=O)NCc2cccs2)c2c3ccccc3n(C)c2c1=O	81%
CCOC(=O)C1CCCN(C(=O)CN2CCN(Cc3ccc(Cl)cc3)C2=O)C1 (centres undefined)	71%
O=C(C1CCC(Cn2c(=O)[nH]c3ccccc3c2=O)CC1)N1CCN(c2ccccc2)CC1 (centres undefined)	44%
CCN(CC)c1ccc(C2C(C(=O)OCCOC)=C(C)NC3=C2C(=O)CC(C)(C)C3)cc1 (centres undefined)	71%
c1ccc(CNc2cc(-c3ccoc3)ncn2)cc1	18%
Cc1ccc(CC23CN4CCN(CC(C4)C2O)C3)c(C)c1 (centres undefined)	-21%
CN(C)c1ccc(-c2ccc3ncnc(N(C)Cc4ccco4)c3c2)cc1	38%
CCNC(=O)c1cc2c(=O)n3cccc(C)c3nc2n1C	-3%
CCCn1c(NC(=O)c2ccc(C)cc2)nc2ccccc21	-4%
N=c1oc2ccc3ccccc3c2cc1-c1nnc2n1CCCCC2	30%
O=C(C(c1ccccc1)c1ccccc1)N(Cc1ccco1)C1CCS(=O)(=O)C1 (centres undefined)	55%
COc1ccccc1CN1CCC2(CC1)CCN(C(=O)c1cccn1C)CC2	0%
Cc1noc(C)c1S(=O)(=O)N(CC(=O)NCc1ccc(Cl)cc1)c1ccc2c(c1)OCO2	18%
COC(=O)[C@](C)(N)Cc1ccc(O)cc1	-3%
O=C(Nc1ccc(N2CCN(c3ccc(O)cc3)CC2)cc1)Oc1ccccc1	23%
CCCCn1ccnc1C(=O)c1ccc(S(=O)(=O)N(CCOC)CCOC)cc1	119%
Cc1ccc(S(=O)(=O)N2CCC(C(=O)N[C@@H](C)C(=O)NCc3ccccc3)CC2)cc1	24%
CC(C)NC(=O)N1CC[C@@]2(CCCN(C(=O)c3cccn3C)C2)C1	15%
COc1ccc(C(O)C(CN2CCOCC2)c2ccccc2)cc1F (centres undefined)	4%
COc1ccc(OC)c(NC(=O)C2CCN(c3ncccn3)CC2)c1	7%
CCC(c1nnnn1Cc1ccco1)N(CCN1CCOCC1)Cc1cc2cc(C)ccc2[nH]c1=O (centres undefined)	64%
Clc1ccc(Cn2c(CN3CCCC3)nc3ccccc32)cc1	40%[12.8 µM]

# Additional entries
compound	AmpC nodet inh
COc1ccc(C(=O)Nc2cccc(C(C)=O)c2)cc1S(=O)(=O)N1CCOCC1	37%
CCn1c(SCC(=O)Nc2ccc3c(c2)OCO3)nc2c(c1=O)SC(C)C2 (centres undefined)	1%
COc1ccc(Cl)cc1N1C(=O)C2CCCN2C1c1sccc1C (centres undefined)	38%
CCc1c(C)n([O-])c2c([n+]1=O)CCC2	-6%
O=C(N1CCOCC1)N1CCN(c2ccccn2)CC1	8%
COc1ncc2nc(-c3ccc(F)cc3)c(=O)n(C)c2n1	3%
CCOC(=O)C1CCN(C(=O)COc2ccc(N(C)S(=O)(=O)c3cccs3)cc2)CC1	65%
CC(=O)N[C@@H](CC(=O)O)C(=O)N[C@@H](CCC(=O)O)C(=O)O	4%
COc1ccc(-c2csc(N3CCC(C(N)=O)(N4CCCCC4)CC3)n2)cc1	67%
CNc1ncnc2ccc(-c3ccccc3CN(C)C)cc12	14%
Cc1nn(C)c(C)c1S(=O)(=O)N(CC(=O)Nc1ccc2c(c1)OCO2)c1ccc(C(C)C)cc1	15%
CC(C)Cn1c(N)c(C(=O)COC(=O)C2=COCCO2)c(=O)n(C)c1=O	-1%
O=c1[nH]c(=O)n(CCC2=CCCCC2)c(O)c1C=NCCCn1ccnc1	61%
c1cc(-c2noc(CCC3CCCC3)n2)ccn1	32%
COCCNC(=O)C(C)OC(=O)c1nsc(Cl)c1Cl (centres undefined)	-1%
COC(=O)c1sccc1NC(=O)c1ccco1	1%
Cn1c(=O)c(=O)n(C)c2cc(S(=O)(=O)Nc3ccc4c(c3)OCCO4)ccc21	-2%
c1ccc(SCCc2ccncc2)cc1	11%[5.75 µM]
OC1(c2ccc(Cl)cc2)CCN(Cc2c[nH]c3ccccc23)CC1	-2%&1%
CCOC(=O)C1CCN(C/C=C/c2ccccc2OC)CC1	19%
COCc1cc(C)nc2sc3c(=O)n(Cc4ccco4)nnc3c12	4%
O=c1o[nH]c(-c2ccccc2)c1C1=NCCCCC1	0%
CCN(CC)CC(O)Cn1c2ccccc2c2ccccc21 (centres undefined)	0%
CC(C)(Oc1ccc(Cl)cc1)C(=O)NCc1ccco1	63%
O=S(=O)(c1ccccc1)c1nc(-c2ccccc2)oc1NCc1cccnc1	50%
CCC(=O)Nc1ccc(NC(=O)C23CC4CC(CC(C4)C2)C3)cn1	15%
CCn1cc(C(=O)NCCN(C)CCc2ccccc2)c(=O)c2cc(S(=O)(=O)N(C)C)ccc21	105%
COc1ccc(NC(=O)Nc2nnc(N3CCCCC3C)s2)cc1OC (centres undefined)	4µM*[single pt active]
Cc1cc(C)c2c(=O)n(CC(=O)NCCCN3CCOCC3)sc2n1	27%
Cc1ccccc1S(=O)(=O)Cc1ccc(C(=O)N2CCN(C3CCCCC3)CC2)o1	64%

# Shown as labelled records: four of the compounds above.
> CCOC(=O)C1CCN(C(=O)COc2ccc(N(C)S(=O)(=O)c3cccs3)cc2)CC1
  AmpC nodet inh = 65%
> Cc1ccc(S(=O)(=O)N2CCC(C(=O)N[C@@H](C)C(=O)NCc3ccccc3)CC2)cc1
  AmpC nodet inh = 24%
> CCCC(=O)Nc1ccc(OCC(=O)OC)cc1
  AmpC nodet inh = 8%
> COc1ccc(S(=O)(=O)NCCC(=O)NC(C)c2ccccc2)cc1 (centres undefined)
  AmpC nodet inh = 11%

# More records:
compound	AmpC nodet inh
Cc1cc(C)cc(CC2CC(=O)N(c3ccc4c(c3)OCCO4)C2=O)c1 (centres undefined)	55%
O=C(CCN1c2ccccc2Sc2ccccc21)OCc1nnc(-c2ccccc2)o1	-1%
Cc1nc(CSc2nnc3scc(-c4ccc(Cl)cc4)n23)cs1	39%
c1cncc(-c2nnc(C3CCCCC3)o2)c1	7%
CCOC(=O)c1[nH]c(C)c(/C(O)=C2\C(=O)C(=O)N(CCN(C)C)C2c2cccc(OC)c2OC)c1C (centres undefined)	-5%
Nc1ccc(-c2nnc(-c3ccc(-c4ccccc4)cc3)o2)cc1	7%
O=C(CSCc1ccc(Cl)cc1)NCC1CCCO1 (centres undefined)	16%
Cn1c(=O)cc(OCCCC(=O)NC2CCCC2)c2ccccc21	23%
COc1ccc(OC)c(C(=O)COC(=O)C2CC3CCCC(C2)C3=O)c1 (centres undefined)	61%

# Three records picked at random from the list so far, as already listed:
compound	AmpC nodet inh
c1cncc(-c2nnc(C3CCCCC3)o2)c1	7%
O=C(CCN1c2ccccc2Sc2ccccc21)OCc1nnc(-c2ccccc2)o1	-1%
Cc1cc(C)cc(CC2CC(=O)N(c3ccc4c(c3)OCCO4)C2=O)c1 (centres undefined)	55%

# Bioassay records (PubChem)

# A portion of the library; the hit share may differ from the screen's.
